Cruzain Triton – blocks cruzain activity in presence of Triton detergent; purified cruzain, Z-FR-AMC fluorescence, 0.01% Triton; Potency, µM, without a hit: max response, negative = inhibition, hits mostly inhibitors; 200,000 compounds, 0.43% hits;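 further: plate controls were neutral wells for no effect and buffer without enzyme for full effect; nearly all actives have a fitted effect of over 40% in size; top concentration of the series not given in the record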
Target sequence (P25779 123-467 limits assumed): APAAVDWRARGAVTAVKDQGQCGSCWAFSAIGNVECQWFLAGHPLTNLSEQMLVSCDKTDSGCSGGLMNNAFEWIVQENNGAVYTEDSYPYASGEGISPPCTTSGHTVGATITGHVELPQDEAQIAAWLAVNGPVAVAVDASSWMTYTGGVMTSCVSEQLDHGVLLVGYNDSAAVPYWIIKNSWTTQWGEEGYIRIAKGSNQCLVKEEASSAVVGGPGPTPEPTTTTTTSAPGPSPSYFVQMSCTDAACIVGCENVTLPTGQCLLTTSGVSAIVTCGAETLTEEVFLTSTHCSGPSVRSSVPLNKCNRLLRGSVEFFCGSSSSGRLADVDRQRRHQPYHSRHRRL
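Steps: dispense cruzain (1.5 nM final) in acetate buffer pH 5.5 with DTT and 0.01% Triton X-100; pin-transfer compounds; incubate 15 min RT; add Z-FR-AMC (2 uM final); read fluorescence every 30 s, using the 60 s intensity change.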
SARS PLpro yeast – inhibitors of SARS-CoV papain-like protease in yeast | S. cerevisiae expressing SARS-CoV PLpro, growth rescue; control for the full effect not named in the record | Potency, µM (highest dose often 32.9 µM), without a hit: top-dose activity, positive = growth rescue | 330,000 compounds, 0.19% hits | AID 485353; active means well fitted rising curve with a large enough effect; inconclusive means small, poorly fitted or top-dose-only effect; inactive means no such curve, though single readings can be large or run the other way; further: 0% is about no effect; nearly all actives have a fitted effect of over 55% in size; growth read by luminescence after 48 h
Cruzain inh noDet – blocks cruzain activity in detergent-free assay | purified cruzain, Z-FR-AMC fluorescence, no detergent | Potency, µM, inactives show max response, negative = inhibition, most hits filed as inhibitors | 200,000 compounds, 2.3% hits;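 further: plate controls were enzyme without inhibitor for no effect and buffer without enzyme for full effect; nearly all actives have a fitted effect of over 40% in size; top concentration of the series not given in the record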
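Detergent-free condition (0.00005% Triton X-100) in acetate buffer pH 5.5 with DTT. 1.5 nM enzyme and compound were pre-mixed 15 min, then 2 uM Z-FR-AMC substrate added; reaction progress from fluorescence change between first and third reads (60 s).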
RE007 growth inh – less growth of the S. pombe RE007 Vpr strain | 360,000 compounds, 0.21% hits | S. pombe RE007 Vpr strain, BacTiter-Glo ATP luminescence, 24 h; control for the full effect not named in the record | AID 651644 | Potency, µM (doses to about 92.2 µM), inactives show at the highest dose activity change, negative = less growth; active = well fitted falling curve with a large enough effect; inconclusive = small, poorly fitted or top-dose-only effect; inactive = no such curve, though single readings can be large or run the other way;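 further: on the % scale 0 is the no-effect control and ±100 the full control effect; nearly all actives have a fitted effect of over 50% in size; the assay follows cell death caused by Vpr and the record does not say whether a fall means rescue or toxicity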
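Fission yeast RE007 carrying one integrated HIV-1 vpr copy, seeded at OD 0.01 in PMG+AL medium with 23 nL pinned compound. Grown 24 h at 30 degrees; viability read by BacTiter-Glo luminescence after 5 min.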
Lassa entry inh – inhibitors of Lassa virus binding or cell entry. Lassa virus pseudotype entry inhibition, cell reporter; control for the full effect not named in the record. Potency, µM (highest dose often 37.9 µM), for inactives: at the highest dose activity change, negative = inhibition, usual class: inhibitors. 300,000 compounds, 1.2% hits; active means well fitted inhibition curve with a large enough effect; inconclusive means small, poorly fitted or top-dose-only effect, or effect the other way; inactive means flat fitted curve, though single readings scatter; tested in HEK293 cells; further: on the % scale 0 is the no-effect control and ±100 the full control effect; nearly all actives have a fitted effect of over 50% in size; luciferase read-out
NS1 inh – inhibitors of influenza NS1 protein function. Potency, µM (titrated, usually from 46.1 µM), without a hit: at the highest dose activity, positive = more growth. AID 2326. 270,000 compounds, 0.4% hits. S. cerevisiae slowed by influenza A NS1, growth recovery by OD600; active means well fitted rising curve with a large enough effect; inconclusive means small, poorly fitted or top-dose-only effect; inactive means no such curve, though single readings can be large or run the other way; further: nearly all actives have a fitted effect of over 50% in size
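In this qHTS, NS1 from influenza A is expressed in budding yeast, where it slows growth. Cells are switched from glucose to 2% galactose medium (pH 6.0, -URA), treated with compound, and growth recovery is read at OD600.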
StopGo reporter – lowers the luciferase signal of an FMDV 2A StopGo reporter | human cells with a luciferase reporter of 2A StopGo recoding; control for the full effect not named in the record | Potency, µM (series often up to 57.9 µM), for the others: at the highest dose signal change, negative = less light | 410,000 compounds, 1.2% hits; active = well fitted falling curve with a large enough effect; inconclusive = small, poorly fitted or top-dose-only effect; inactive = no such curve, though single readings can be large or run the other way; tested in HEK293T cells; further: on the % scale 0 is the no-effect control and ±100 the full control effect; nearly all actives have a fitted effect of over 45% in size; luciferase light after 4 h
MARV entry inh – Marburg virus entry inhibition | Marburg virus pseudotyped entry inhibition, cell reporter; control for the full effect not named in the record; about a third of the inactives were read at about 46 µM | Potency, µM (top dose mostly 37.8 µM), for the others: top-dose activity change, negative = inhibition, actives largely listed as inhibitors | 300,000 compounds, 1.8% hits | AID 540276; active = well fitted inhibition curve with a large enough effect; inconclusive = small, poorly fitted or top-dose-only effect, or effect the other way; inactive = flat fitted curve, though single readings scatter; tested in HEK293 cells; about a fifth of its hits are not listed in these tables; further: on the % scale 0 is the no-effect control and ±100 the full control effect; luciferase read-out
* = called active by the depositor; ? = inconclusive; · = not tested or not shown; [ ] = dose if it differs, or a comment. Unless noted, the call rests on the fitted dose curve; in most records, active means well fitted curve in the direction sought with a large enough effect; inconclusive means small, poorly fitted or top-dose-only effect, or another doubt; inactive means no such curve, though single readings can be large; an effect the other way counts as inactive or inconclusive. Potency means the concentration at half of the fitted maximal effect.

SMILES	Cruzain Triton	SARS PLpro yeast	Cruzain inh noDet	RE007 growth inh	Lassa entry inh	NS1 inh	StopGo reporter	MARV entry inh
O=C(c1ccco1)N1CCN(C(=O)C2CCCO2)CC1 (stereo not given)	0.4%	4.0%	14.1%	1.9%	-1.3%	10.5%	·	1.3%
COC(=O)c1c(NC(=O)Cc2coc3ccc(C)cc23)sc2c1CCC2	-1.7%	·	-5.8%	·	-1.6%[46.1 µM]	·	-0.8%	21.7%[46.1 µM]
CCOC(=O)C1CCCN(C(=O)Cn2nc(C)c3c(C)n(-c4ccccc4)nc3c2=O)C1 (stereo not given)	·	-1.4%	·	-1.4%	·	5.7%	-12.0%	·
Clc1cccc(CN2CCSCC2)c1Cl	·	1.2%	·	16.7%	16.5%	19.0%	-7.9%	?
COc1ccc(N(CC(=O)NCc2ccco2)S(=O)(=O)c2ccc(C)cc2)cc1	·	-0.7%	·	2.3%	-26.4%	-6.2%	11.6%	1.4%[46.1 µM]
COc1ccccc1-c1cc(-c2ccccc2)nc(=O)[nH]1	·	-1.0%	·	-15.1%	21.6%	-2.2%	?	?
Nc1ccc2nc(SCC(=O)N3CCN(c4ccccc4)CC3)sc2c1	·	-12.4%	·	0.7%	?	-3.2%	?	?
O=C(NCc1ccc(-c2csnn2)cc1)c1cc(Cl)cc(Cl)c1	·	0.9%	·	8.8%	-1.6%[46.1 µM]	0.6%	-8.2%	?
C/C(=N\NC(=O)c1ccc(CSc2cccc3cccnc23)cc1)C1CCCCC1	-6.1%	-51.3%	?	-0.4%	18.3%	24.8%	-11.0%	?
CCCCc1[nH]nc2c1C1(C(=O)N(CC)c3ccccc31)C(C#N)=C(N)O2 (stereo not given)	-3.5%	1.4%	-2.6%	6.7%	-2.0%	-3.7%	-20.5%	-22.8%
O=C(COc1ccc2cc(Br)ccc2c1)N1CCCC1	·	1.2%	·	1.4%	·	7.0%	8.3%	·
O=C(NCc1ccc(F)cc1)c1cc2c(=O)n3ccccc3nc2s1	4.8%	·	5.0%	·	-0.5%[46.1 µM]	·	2.6%	?
N/C(=N\OC(=O)C1CC1)c1ccc([N+](=O)[O-])s1	·	-3.5%	·	3.0%	-7.6%	-3.9%	-8.7%	6.1%
CC(=O)Nc1ccc(N2CCCCC2)cc1	3.4%	4.9%	-2.2%	4.8%	6.5%	2.8%	·	29.2%
CCn1nc(C(=O)NCC(c2cccs2)N2CCOCC2)c2ccccc2c1=O (stereo not given)	·	7.8%	·	17.6%	?	-5.0%	0.0%	-9.4%
CCOc1ccccc1N(CC(=O)O)S(=O)(=O)c1ccc(C)cc1	2.3%	4.0%	-13.4%	6.8%	20.0%	4.7%	-6.5%	-2.2%
Cc1cccc(C)c1OCC(=O)Nc1ccc2c(c1)C(=O)NC2=O	·	4.1%	·	-2.2%	22.8%[46.1 µM]	6.8%	-22.9%	4.4%[46.1 µM]
O=C1N(c2cccc(Cl)c2)C(c2cccnc2)N2CCCN12 (stereo not given)	·	0.7%	·	-2.1%	24.4%[46.1 µM]	·	19.2%	0.0%[46.1 µM]
CCC(=O)N1CC(=O)Nc2ccc(F)cc2C1c1ccc(F)cc1 (stereo not given)	·	0.7%	·	12.8%	25.6%	3.1%	-3.1%	2.9%
COc1cccc(C2/C(=C(\O)c3c(C)nc4c(C)cccn34)C(=O)C(=O)N2CCCN(C)C)c1 (stereo not given)	1.1%	2.1%	-6.4%	·	·	-11.7%	·	·
CCOn1c(=O)c(-c2cccc3ccccc23)[n+]([O-])c2ccccc21	·	-1.2%	·	6.7%	19.1%	0.0%	-5.4%	?
Cc1nn(C)c(Oc2ccccc2)c1CCNS(=O)(=O)c1ccc(Cl)cc1	-6.5%	-2.9%	18.0%	4.0%	-23.2%	-11.6%	-12.6%	-19.3%[46.1 µM]
CNc1nc(Sc2cccc(C(F)(F)F)c2)cc(C(F)(F)F)n1	-8.9%	-2.9%	1.5%	-14.8%	2.9%	?	-17.9%	-8.0%
O=C(/C=C/c1c(F)cccc1Cl)NCc1ccc2c(c1)OCO2	·	1.0%	·	-6.8%	-18.6%[46.1 µM]	-7.1%	22.4%	4.9%[46.1 µM]
COc1cc2c3nnc(-c4ccc(F)cc4)c-3cn(Cc3cccc(C)c3)c2cc1OC	-9.0%	0.0%	?	-6.4%	·	23.3%	?	·
CCOc1ccccc1N(CC(=O)NCc1ccncc1)S(=O)(=O)c1ccccc1	·	-0.8%	·	-0.3%	2.0%	3.5%	1.6%	-0.5%
CC(=O)c1cccc(NC(=O)c2cc(-c3ccc4c(c3)OCCO4)on2)c1	0.2%	·	-1.5%	·	7.1%[46.1 µM]	·	-46.4%	20.2%[46.1 µM]
C=CCn1c(SCC(=O)NCc2ccco2)nc2sc3c(c2c1=O)CCC3	-0.6%	3.4%	-15.0%	-7.5%	-11.5%	-6.2%	-10.7%	-11.3%
CCOC(=O)C(=O)N/N=C(/c1ccccc1)c1ccc(OC)cc1	·	0.4%	·	-10.3%	-0.9%	-7.2%	6.8%	-13.0%[46.1 µM]
Cc1nc2cccc(C(=O)NCc3ccccc3)c2o1	1.4%	-6.3%	-5.1%	-7.2%	-8.6%	-33.9%	16.5%	?
CCOc1ccc(OC(=O)C(CCS(C)(=O)=O)N2C(=O)c3ccccc3C2=O)cc1 (stereo not given)	-1.5%	1.5%	?	6.4%[3.69 µM]	4.9%	6.5%	-12.8%	10.0%
Cc1cccc(N(C(=O)c2csnn2)C(C(=O)NC(C)(C)C)c2cccnc2)c1 (stereo not given)	·	0.2%	·	47.1%	10.8%[46.1 µM]	-1.7%	-2.8%	-8.2%[46.1 µM]
CCc1cccc(NC(=O)CCS(=O)(=O)c2cc3c(cc2C)NC(=O)CO3)c1	·	3.1%	·	14.0%	·	-2.5%	-14.7%	·
COc1ccc(NS(=O)(=O)c2cccc(C(=O)NN=Cc3ccc(OC)c(O)c3)c2)cc1	·	-3.4%	·	-1.0%	25.9%	·	9.5%	-2.5%
COc1ccc(C2C=C(c3ccc(Br)s3)Nc3ncnn32)cc1OC (stereo not given)	-16.1%	-24.9%	?	·	·	7.5%	·	-7.5%
CC(NC(=O)c1ccc(N(C)C)c([N+](=O)[O-])c1)c1ccc(-n2ccnc2)cc1 (stereo not given)	·	0.7%	·	-9.2%	?	-12.4%	?	-17.0%
CCOC(=O)c1sc(NC(=O)c2sccc2C)cc1C	-15.6%	-18.1%	-2.2%	-18.9%	?	-1.3%	37.8%[activator]	?
Cc1nn2c3ccccc3n(C)c2nc1=O	-2.5%	10.3%	3.5%	0.1%	3.3%	5.6%	2.4%	-13.6%
O=C(NCCN1CCOCC1)c1c(Cl)cccc1Cl	·	3.1%	·	-0.1%	20.4%[46.1 µM]	7.4%	-5.1%	?
Cn1c(SCC(=O)N2c3ccccc3Sc3ccc(Cl)cc32)nnc1-c1ccco1	-14.0%	-65.7%	2.6%	5.8%	?	-38.8%	-7.8%	?
COCC(C)NC(=S)NC(=O)c1cc(S(=O)(=O)N2CCOCC2)ccc1C (stereo not given)	·	3.1%	·	7.6%	1.8%	2.8%	-28.4%	-9.1%[46.1 µM]
CC(C)=CCN1CCN(Cc2cccn2-c2nccs2)CC1CCO (stereo not given)	·	0.2%	·	0.1%	-9.2%[46.1 µM]	1.4%	-6.1%	?
CN(C)C(=O)Oc1ccc(Cl)c2cccnc12	·	1.8%	·	13.1%	2.7%	·	13.8%	14.0%[46.1 µM]
Cc1ccc2c(c1)N(Cc1ccc3c(c1)OCO3)C(=O)C(C)O2 (stereo not given)	-1.3%	-2.1%	4.4%	-7.4%	-5.4%	-35.3%	-28.6%	-5.2%
CCc1ccccc1NC(=O)C1CCN(C(=O)c2ccc([N+](=O)[O-])cc2)CC1	·	-0.6%	·	3.4%	22.4%[46.1 µM]	-6.3%	-8.5%	-3.5%[46.1 µM]
CC(C)Cc1cc(CN2CCCC(CO)(Cc3cccc(Cl)c3)C2)[nH]n1 (stereo not given)	·	-0.1%	·	7.1%	·	-2.1%	-23.0%	·
Cc1[nH]c2ccccc2c1C(=O)CSc1ccc(F)cc1	-4.8%	1.1%	-13.9%	-11.0%	3.9%	0.9%	9.9%	23.0%
COC(=O)c1ccccc1NC(=O)COC(=O)/C=C/c1ccco1	·	-1.2%	·	10.5%	-8.7%	·	-6.3%	?
CC1CCN(C(=O)c2ccccc2NC(=O)Nc2ccccc2)CC1	·	1.5%	·	-7.8%	7.5%	-10.2%	46.7%[activator]	-18.1%
Cc1ccc(S(=O)(=O)N(C)C)cc1NC(=O)CN1C(=O)NC(Cc2c[nH]c3ccccc23)C1=O (stereo not given)	·	0.3%	·	5.7%	·	-2.9%	9.3%	·
COc1ccc(Cl)cc1N(C(=O)c1ccco1)C(C(=O)NC1CCCC1)c1ccncc1 (stereo not given)	·	-0.5%	·	1.3%	-1.2%[46.1 µM]	-1.5%	-12.4%	-25.9%[46.1 µM]
Cc1nc(N)sc1-c1csc(Nc2cccc(O)c2)n1	·	-0.9%	·	-17.0%	1.1%	0.1%	-28.3%	15.5%
Cc1c(C=O)c2ccccc2n1Cc1cccc(F)c1	-7.8%	-12.2%	-7.0%	-4.7%	-16.0%	-7.9%	?	10.3%
Cc1cccc(C(=O)C2CCN(S(=O)(=O)c3ccc(C(=O)O)cc3)CC2)c1	·	-0.4%	·	41.8%	8.0%	3.8%	13.3%	-7.0%[46.1 µM]
CCOC(=O)c1c(NC(=O)c2cccc([N+](=O)[O-])c2C(=O)O)sc2c1CCCC2	·	1.1%	·	14.4%	?	5.4%	3.9%	-2.2%[46.1 µM]
O=C(COC(=O)c1ccc(F)cc1)NCCc1ccc(F)cc1	·	-4.6%	·	3.3%	-0.1%	·	-2.8%	-24.8%
